# Screening results as filed in PubChem.
# Menin MLL FP FL: inhibitors of human menin-MLL interaction, wild-type MLL peptide. Fluorescence polarization, fluorescein-MLL peptide displacement from menin. FP activity change, % at 61.4 µM. 290,000 tested, under 10 active; inconclusive = falling polarisation curve, or a change in total fluorescence; inactive = total fluorescence flat and polarisation flat or rising; no compound was filed as active; the % refers to the polarisation; negative = inhibition;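 also: % of control where 0% means no effect; inhibitors lower the polarisation; unlabelled MLL peptide was the positive control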
# TRPML1 inh: blocks the human TRPML1 channel | TRPML1-inducible cells, Ca2+ dye fluorescence, FDSS; active compounds read low; inhibition of EC80 agonist-evoked calcium signal | activity change, negative = inhibition, % (test concentration not listed) | actives 0.02% (n = 390,000) | Q9GZU1; in the data active means activity change below about -50%; inconclusive means about -30% to -50%; inactive means above about -30%;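 also: stimulus is agonist 54-4 at its EC80 concentration; % is scaled to controls: 0 for no effect and ±100 for the full control effect; compound concentration not given in the record; the text of the record puts the active cut at -80%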
# Target sequence (Q9GZU1 whole entry, looked up): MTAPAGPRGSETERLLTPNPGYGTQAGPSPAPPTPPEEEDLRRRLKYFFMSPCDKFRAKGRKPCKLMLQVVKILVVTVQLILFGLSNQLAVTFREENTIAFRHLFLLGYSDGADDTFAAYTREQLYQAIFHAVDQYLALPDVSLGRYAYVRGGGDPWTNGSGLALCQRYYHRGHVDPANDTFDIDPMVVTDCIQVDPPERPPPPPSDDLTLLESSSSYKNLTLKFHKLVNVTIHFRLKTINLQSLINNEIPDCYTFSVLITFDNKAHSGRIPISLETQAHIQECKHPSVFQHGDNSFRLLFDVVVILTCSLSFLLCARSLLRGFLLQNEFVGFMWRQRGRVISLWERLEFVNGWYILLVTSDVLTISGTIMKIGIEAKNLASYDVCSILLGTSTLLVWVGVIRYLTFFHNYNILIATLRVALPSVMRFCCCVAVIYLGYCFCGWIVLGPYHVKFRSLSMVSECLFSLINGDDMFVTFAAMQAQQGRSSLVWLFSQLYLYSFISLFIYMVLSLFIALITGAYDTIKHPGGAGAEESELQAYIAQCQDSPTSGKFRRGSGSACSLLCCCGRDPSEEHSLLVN
#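 Calcium fluorescence in TRPML1-DL cells induced overnight with Tet: a 110 s read after compound pin addition, then a 110 s antagonist read after challenge with 54-4 at 4 uM final (EC80).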
# TRPML1 ag: agonists of human TRPML1 channel; Q9GZU1; TRPML1-expressing cells, Ca2+ dye fluorescence, FDSS; host cell line not named in the record; reference of the full effect not given here; activation, % (concentration not given with the values); actives 0.12% (n = 410,000); in the data active = activation above about 50%; inconclusive = about 30% to 50%; inactive = below about 30%; also: 0% is about no effect; the text of the record puts the active cut at 80%
#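 Tet-induced TRPML1-DL cells, 1,500 per well, cultured overnight, were loaded with a no-wash Ca2+ dye for 45–90 min. Calcium fluorescence was recorded on the FDSS for 110 s after compound addition, before the EC80 agonist (4 uM 54-4) was added.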
# gsp ag: gsp mutant agonism. gsp mutant cells, cAMP HTRF, 30 min; control for the full effect not named in the record. Potency, µM (top dose mostly 76.9 µM), for inactives: at the top dose activation (cAMP increase), actives largely listed as activators. actives 0.13% (n = 340,000); active = well fitted activation curve with a large enough effect; inconclusive = small, poorly fitted or top-dose-only effect, or another doubt; inactive = no such curve, though single readings can be large or run the other way; cell line not stated here;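 also: phosphodiesterase inhibitor Ro 20-1724 added with compounds to block cAMP breakdown; potency is read from the fitted curve at half-maximal effect; nearly all actives have a fitted effect of over 60% in size; about a fifth of the inactives were tested at one dose only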
#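 Cells stably selected in G418 were plated at 2000/well, grown 16-24 hr, then given compounds in DMSO with the PDE inhibitor […] (300 uM solution added) for 30 min at 37C; cAMP was read by HTRF.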
# ClpP mod: qHTS Assay for Activators of ClpP; ATP-dependent Clp protease proteolytic subunit (Bacillus subtilis (strain 168)), P80244; purified B. subtilis ClpP, FRET peptide cleavage, 20 min; Potency, µM (titrated, usually from 57.5 µM), for the others: at the top dose activity change, negative = active; actives 1.9% (n = 340,000); AID 651965, 2013; active = well fitted falling curve with a large enough effect; inconclusive = small, poorly fitted or top-dose-only effect; inactive = no such curve, though single readings can be large or run the other way; also: potency is read from the fitted curve at half-maximal effect; the source files actives as falling curves though it sought activators and does not explain the sign; nearly all actives have a fitted effect of over 65% in size; many hits overshoot -100%
# Target sequence (P80244 whole entry, looked up): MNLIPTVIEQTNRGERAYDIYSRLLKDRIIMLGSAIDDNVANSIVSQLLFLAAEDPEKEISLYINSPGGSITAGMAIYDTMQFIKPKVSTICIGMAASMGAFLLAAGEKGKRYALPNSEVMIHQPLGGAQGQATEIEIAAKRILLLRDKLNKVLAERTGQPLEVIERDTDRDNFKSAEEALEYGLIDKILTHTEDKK
#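 FRET quenching reversal measured ClpP activation: 10 microg/mL B. subtilis ClpP at pH 8 with the FRET-FV decapeptide, read at 430 nm after 320 nm excitation. The 20-min minus 0-min signal was scaled between DMSO/no-enzyme wells and ADEP (5.8 microM final).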
# gsp antagonist: antagonizes gsp, the McCune-Albright syndrome mutation; gsp-mutant cells, cAMP HTRF, 30 min; control for the full effect not named in the record; actives 0.4% (n = 340,000); Potency, µM (highest dose often 76.9 µM), for the others: at the highest dose activity change, negative = inhibition, most hits filed as inhibitors; AID 624288; active = falling curve of any shape with a large fitted effect; inconclusive = falling curve, mostly with a smaller effect; inactive = flat or rising curve; cell line not stated here;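 also: intracellular cAMP measured with PDE inhibitor Ro 20-1724 present during compound exposure; potency is read from the fitted curve at half-maximal effect; % is scaled to controls: 0 for no effect and ±100 for the full control effect; nearly all actives have a fitted effect of over 65% in size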
#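 Cells, 2000/well, grown 16–24 h in DMEM 10% FBS with 0.5 mg/ml G418, then compounds plus […] (300 uM addition stock), 30 min at 37C. cAMP read by HTRF (cAMP-d2 and anti-cAMP antibody-K in lysis buffer) after 30 min RT.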
# An asterisk follows results filed as active; ? = inconclusive; . = not tested or not shown; [ ] = remark or other dose.
# Short forms – A = Menin MLL FP FL; B = TRPML1 inh; C = TRPML1 ag; D = gsp ag; E = ClpP mod; F = gsp antagonist
Cc1ccc(COC(=O)c2ccc3ccccc3n2)cc1
  A: 3.7; B: -1; C: 4.3; D: ?; E: .; F: 3%
NC1=NC[C@H](Cc2ccccc2)N1CCc1cc(C(F)(F)F)cc(C(F)(F)F)c1
  A: 0.3; B: -18; C: -0.2; D: -23%; E: -1.2%; F: 15%
Cc1ccc(NC(=O)C2=CCN(S(=O)(=O)c3ccc(F)cc3)CC2)cc1
  A: -0.4; B: 37; C: 0.5; D: -27%; E: 1.6%; F: -12%
O=C(Nc1cc(S(=O)(=O)N2CCCCC2)ccc1N1CCOCC1)c1cc(=O)[nH]c2ccccc12
  A: -1.8; B: 11; C: -0.4; D: ?; E: 0.3%; F: 1%
COC(=O)CCNCCSc1nnc(-c2ccco2)n1Cc1ccccc1
  A: 1.4; B: -1; C: -1.0; D: -17%; E: -0.6%; F: 1%
Cc1ccc(O)c(C(=O)c2cc(C#N)c(=O)n(Cc3ccccc3)c2)c1
  A: ?; B: 26; C: 2.5; D: -11%; E: .; F: -17%
COCCCn1c(=O)/c(=C\c2ccccc2OC(F)F)s/c1=C(/C#N)C(=O)N1CCOCC1
  A: 14; B: 1; C: 0.4; D: -1%[15.4 µM]; E: .; F: -8%
CSc1nnc(NC(=O)c2cc(=O)c3cc(C)c(C)cc3o2)s1
  A: .; B: 39; C: 0.8; D: .; E: -1.6%; F: .
CN=c1scc(-c2cc(OC)ccc2OC)n1/N=C/c1c(C)[nH]c2ccccc12
  A: 8.1; B: 51; C: 3.0; D: 7%[15.4 µM]; E: .; F: -9%
COCCCNC(=O)CSc1nc2c(sc3ccccc32)c(=O)n1CCCC(=O)NCCOC
  A: .; B: -3; C: -0.2; D: .; E: -7.8%; F: .
CC(C)OCCCNC(=O)CN1CCN(Cc2ccccc2Cl)C1=O
  A: -2.5; B: 11; C: -0.8; D: ?; E: 0.0%; F: 8%
Cn1c(C(=O)NCc2ccc(F)cc2)cc2cc(S(=O)(=O)N3CCCCC3)ccc21
  A: .; B: 4; C: 3.6; D: .; E: -0.3%; F: .
Cc1nc2ccc(S(=O)(=O)NCC(=O)N3CCCCC3)cc2s1
  A: -4.1; B: -4; C: -0.7; D: 6%; E: 0.1%; F: 12%
COc1ccc(CNc2nccs2)cc1
  A: 1.7; B: .; C: .; D: 10%; E: -1.7%; F: -3%
CCN(CC)CCN1C(=O)c2ccccc2NC1c1cc(OC)c(OC)c(OC)c1 (centres undefined)
  A: 5.0; B: -7; C: 0.6; D: -10%; E: 13µM*; F: 2%

# An excerpt of these results, as labelled records.
CSc1nnc(NC(=O)c2cc(=O)c3cc(C)c(C)cc3o2)s1
  Menin MLL FP FL: .	TRPML1 inh: 39	TRPML1 ag: 0.8	gsp ag: .	ClpP mod: -1.6%	gsp antagonist: .
CN=c1scc(-c2cc(OC)ccc2OC)n1/N=C/c1c(C)[nH]c2ccccc12
  Menin MLL FP FL: 8.1	TRPML1 inh: 51	TRPML1 ag: 3.0	gsp ag: 7%[15.4 µM]	ClpP mod: .	gsp antagonist: -9%

# (listing goes on)
# Short forms – A = Menin MLL FP FL; B = TRPML1 inh; C = TRPML1 ag; D = gsp ag; E = ClpP mod; F = gsp antagonist
CN(N)c1nc2ccccc2nc1C(F)(F)F
  A: -8.0; B: 12; C: -0.5; D: 11%[15.4 µM]; E: .; F: 1%
CCOc1ccccc1-n1nnnc1SCC(=O)O
  A: 1.0; B: .; C: .; D: ?; E: -1.9%; F: 5%
COc1ccc(OC)c(N(CC(=O)NCc2ccccc2)S(=O)(=O)c2ccc(OC)c(OC)c2)c1
  A: .; B: -4; C: 0.7; D: 20%; E: 2.0%; F: 0%
CC1CCN(CC2CCN(C(=O)Nc3ccc(Br)cc3F)CC2)CC1
  A: .; B: -12; C: 0.0; D: .; E: -1.8%; F: .
O=C(Nc1nccs1)c1cc(Cl)ccc1[N+](=O)[O-]
  A: -3.9; B: -17; C: 0.3; D: 10%; E: -1.9%; F: 3%
c1ccc(NC(=NCc2ccco2)c2ccccc2)cc1
  A: -3.2; B: 3; C: -0.3; D: -22%; E: 1.3%; F: -4%
CC(Cn1cncn1)NC(=O)c1cc(COc2cccc(C(F)(F)F)c2)on1 (centres undefined)
  A: .; B: 6; C: -0.1; D: -11%; E: 2.0%; F: -4%
O=C(Nc1ccc(Cl)c(Cl)c1)N1CCCCCC1
  A: 2.2; B: 7; C: 0.9; D: ?; E: 1.7%; F: 2%
CCOc1cc(C(=O)Nc2c(NC)c3ccccc3oc2=O)cc(OCC)c1OCC
  A: .; B: -2; C: 1.0; D: .; E: 0.2%; F: .
CN1/C(=C/C(=O)C2CCC2)Sc2ccccc21
  A: -0.1; B: -10; C: 0.4; D: ?; E: -10%; F: 3%
COc1cc(Br)cc(-c2nc3c(c(=O)[nH]c(=O)n3Cc3ccccc3)n2C)c1O
  A: -0.4; B: 3; C: -0.9; D: -34%; E: -0.6%; F: 6%
Cc1ccc(CCNS(=O)(=O)c2cc3c(cc2C)n(C)c(=O)c(=O)n3C)cc1
  A: -0.8; B: 19; C: 0.8; D: 4%; E: ?; F: -9%
CCOc1cc(C2C(C(=O)c3ccco3)=C(O)C(=O)N2CC2CCCO2)ccc1O (centres undefined)
  A: 2.4; B: 27; C: 0.8; D: -4%; E: .; F: 9%
Cc1noc(C(=O)NC2CCCCC2)c1Cl
  A: 1.8; B: 17; C: -0.5; D: -28%[15.4 µM]; E: .; F: 10%
Cc1ccc(CN(Cc2cccnc2)C(=O)CN2C(=O)COc3ccccc32)o1
  A: 2.1; B: -9; C: 2.7; D: -97%[inhibitor]; E: -1.5%; F: -16%

# Short forms – A = Menin MLL FP FL; B = TRPML1 inh; C = TRPML1 ag; D = gsp ag; E = ClpP mod; F = gsp antagonist
CCCCN(CC)CCCNC(=O)CCN1N=C(c2ccc(OC)cc2)CCC1=O
  A: .; B: 9; C: 0.2; D: .; E: -3.9%; F: .
COc1ccc(C(=O)NC(=S)Nc2ccc(N3CCCC3)cc2)cc1OC
  A: 11; B: -5; C: -1.5; D: 15%; E: 2.7%; F: 3%
O=S(=O)(NCc1ccc(F)cc1)c1ccc(N2CCCCS2(=O)=O)cc1
  A: .; B: -1; C: -0.8; D: .; E: -1.6%; F: .
Cc1ccc(NC(=S)N(CCCN2CCN(C)CC2)Cc2cccs2)cc1
  A: 7.7; B: -2; C: 0.2; D: 4%[15.4 µM]; E: -0.6%; F: 10%
COC(=O)c1cc(OC)c(OC)cc1NC(=O)c1ccc2c(c1)CCN2S(C)(=O)=O
  A: .; B: 11; C: 0.3; D: .; E: -12%; F: .
COc1ccc(/C=C2\SC(=S)N(CCC(=O)Nc3ccc(C(=O)O)cc3)C2=O)cc1
  A: 1.6; B: 12; C: -0.5; D: -6%; E: -0.8%; F: -27%
COc1ccc(-c2noc(-c3nnn(-c4cc(C)ccc4C)c3N)n2)cc1
  A: .; B: 6; C: -0.2; D: .; E: 0.7%; F: .
O=C(CN(Cc1ccc2c(c1)OCO2)C(=O)CNS(=O)(=O)c1ccccc1)NCC1CCCO1 (centres undefined)
  A: 2.6; B: -14; C: 0.7; D: -23%; E: -3.2%; F: 2%[15.4 µM]
CC1CC(C)(C)CC2(C1)NC(=O)N(CC(=O)OCc1ccc(Br)cc1)C2=O (centres undefined)
  A: .; B: -13; C: 3.4; D: 0%; E: -1.2%; F: 9%
Cc1cccc(Nc2n[nH]c(=S)s2)c1C
  A: 1.2; B: 9; C: 0.0; D: -21%; E: -0.4%; F: -7%
CC(=O)Nc1ccc(C#Cc2ccc(NC(C)=O)cc2)cc1
  A: 2.7; B: -8; C: 0.0; D: -25%; E: -21%; F: -1%
CCN(C(=O)c1cc2c(=O)[nH]c3ccc(C)cc3c2s1)c1ccc(OC)cc1
  A: 3.3; B: -20; C: 0.0; D: -16%[15.4 µM]; E: .; F: 13%
Cc1ccc(NC(=O)Cn2c(=O)c3cccn3c3ccccc32)c(C)c1
  A: .; B: 12; C: -0.8; D: ?; E: -0.5%; F: 19%
Cc1cc(C(=O)NC2Cc3ccccc3C2)c(C)o1
  A: 0.8; B: -4; C: -0.3; D: 13%; E: -1.2%; F: -2%
COc1cccc(C(=O)NCc2ccc3c(c2)OCO3)c1OC
  A: -6.4; B: 10; C: -1.2; D: -7%[15.4 µM]; E: ?; F: 6%

# Short forms – A = Menin MLL FP FL; B = TRPML1 inh; C = TRPML1 ag; D = gsp ag; E = ClpP mod; F = gsp antagonist
Cc1ccc(C)c2sc(NC(=O)c3ccc(N4C(=O)CCC4=O)cc3)nc12
  A: 2.5; B: -15; C: 0.1; D: 3%; E: 4.0%; F: -7%
COc1cccc(N(CC(=O)N2CCN(C)CC2)S(=O)(=O)c2ccc(C)cc2)c1
  A: -1.5; B: 0; C: 1.2; D: -15%; E: -0.6%; F: 2%
COCc1cc(=O)[nH]c(/N=C(\N)Nc2ccc(C)cc2C)n1
  A: -7.2; B: -9; C: 1.4; D: 0%[15.4 µM]; E: .; F: 1%
O=C(Nc1ccc(N2CCN(CCOc3ccc(Cl)cc3)CC2)c(C(=O)O)c1)c1ccc(F)cc1
  A: .; B: 1; C: 1.9; D: .; E: -20%; F: .
C=CCC(C(=O)NC(C)c1ccccc1)C(=O)NC(C)c1ccccc1 (centres undefined)
  A: -11; B: -7; C: 2.5; D: ?; E: .; F: 7%
Cc1cc(F)ccc1NC(=O)Cn1nc(N2CCN(c3ccccc3)CC2)ccc1=O
  A: .; B: 5; C: 1.5; D: .; E: 0.2%; F: .
O=C1c2cccc3cccc(c23)C(=O)N1c1ccc2ncccc2c1
  A: 2.1; B: -13; C: 0.4; D: 7%; E: -7.7%; F: 0%
COc1ccc(NC(=S)N(CCCN2CCOCC2)Cc2cn(C)c3ccccc23)cc1OC
  A: 0.4; B: 2; C: -0.5; D: 12%[15.4 µM]; E: 0.8%; F: -16%
CCN(CC)S(=O)(=O)c1cccc(NC(=O)CCNC(=O)NC23CC4CC(CC(C4)C2)C3)c1
  A: .; B: 12; C: 2.4; D: -2%[15.4 µM]; E: -0.3%; F: -11%

# Some of the entries above, reformatted:
# Sequence of screens: Menin MLL FP FL | TRPML1 inh | TRPML1 ag | gsp ag | ClpP mod | gsp antagonist
Cc1cc(F)ccc1NC(=O)Cn1nc(N2CCN(c3ccccc3)CC2)ccc1=O
→ . | 5 | 1.5 | . | 0.2% | .
O=C1c2cccc3cccc(c23)C(=O)N1c1ccc2ncccc2c1
→ 2.1 | -13 | 0.4 | 7% | -7.7% | 0%
COc1ccc(NC(=S)N(CCCN2CCOCC2)Cc2cn(C)c3ccccc23)cc1OC
→ 0.4 | 2 | -0.5 | 12%[15.4 µM] | 0.8% | -16%
